GLA inh pH 4.5: alpha-galactosidase A (human) inhibition, pH 4.5; P06280; purified enzyme, 4-MU-alpha-Gal fluorescence, pH 4.5; activity change, negative = inhibition, % at 105 µM; 230,000 tested, under 10 active; AID 1467; inconclusive = small, poorly fitted or top-dose-only inhibition, or a rising curve; inactive = flat fitted curve, though single readings scatter; no compound was filed as active;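 note: 0% = full activity with enzyme and -100% = basal without enzyme; dose as in the result columns while the protocol names 77 µM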
Target sequence (P06280 whole entry, looked up): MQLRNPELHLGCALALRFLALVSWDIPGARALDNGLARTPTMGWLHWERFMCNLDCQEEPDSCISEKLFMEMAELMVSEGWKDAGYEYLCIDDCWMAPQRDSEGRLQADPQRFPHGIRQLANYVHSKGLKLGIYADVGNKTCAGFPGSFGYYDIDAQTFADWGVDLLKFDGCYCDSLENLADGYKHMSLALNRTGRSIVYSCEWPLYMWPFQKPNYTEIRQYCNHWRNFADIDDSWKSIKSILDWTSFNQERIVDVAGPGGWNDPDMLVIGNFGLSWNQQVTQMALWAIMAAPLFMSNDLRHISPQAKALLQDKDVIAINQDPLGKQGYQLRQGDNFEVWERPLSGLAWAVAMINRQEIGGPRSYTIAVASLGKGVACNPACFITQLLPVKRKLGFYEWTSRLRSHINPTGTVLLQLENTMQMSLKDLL
Rango-impB inh: Rango-importin beta binding inhibition. Rango CFP/YFP FRET sensor + importin beta, 45 min. 340,000 compounds, 0.031% hits. Potency, µM (top dose mostly 92.2 µM), without a hit: at the highest dose inhibition of complex formation. Q14974; active = rising FRET ratio curve, often small or poorly fitted; inconclusive = mostly compound fluorescence or quenching in the first reads; inactive = flat curves in all reads;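 note: potency is the fitted concentration of half-maximal effect; 0% = DMSO wells and 100% = buffer wells lacking importin beta; nearly all actives have a fitted effect of over 15% in size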
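Inhibition scored from the CFP 486 nm/YFP 530 nm FRET ratio 45 min after adding 0.125 microM importin beta to 50 nM Rango biosensor preincubated 5 min with compound (room temperature, PBS with DTT, Tween-20, BSA). No-importin wells as positive control.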
Rango release inh: prevents RanGTP from dissociating the Rango-importin beta complex | O95149+P62826 | Biochemical FRET Rango-importin beta, RanGTP-induced dissociation | Potency, µM (top dose mostly 46.1 µM), inactives show at the highest dose activity change, negative = inhibition | 340,000 compounds, 0.071% hits | AID 540253; active means falling FRET ratio curve, often poorly fitted, with flat reads before Ran was added; inconclusive means other falling curves, or compound fluorescence or quenching; inactive means flat or rising ratio curve;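 note: potency is the fitted concentration of half-maximal effect; % of control where 0% means no effect; nearly all actives have a fitted effect of over 45% in size; -100% = wells without RanGTP and RCC1; the record marks most hits as doubtful in a second field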
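Two FRET readings bracket the reaction: one 5 min after compound meets Rango–importin beta, another 45 min after RanGTP-RCC1 (0.6 uM Ran, 0.2 uM RCC1, 2 mM GTP) is added. Only the second defines inhibition.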
miR-21 FLuc: miR-21 reporter, rising signal | HeLa miR-21 FLuc reporter, luciferase, 48 h | Potency, µM (titrated, usually from 38.3 µM), inactives show at the top dose reporter change, positive = more light | 340,000 tested, under 10 active; active = well fitted rising curve with a large enough effect; inconclusive = small, poorly fitted or top-dose-only effect; inactive = no such curve, though single readings can be large or run the other way;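 note: % of control where 0% means no effect; miR-21 action dims this reporter so a rising signal means less miR-21 action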
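HeLa cells endogenously expressing miR-21, stably carrying CMV-driven firefly luciferase with a downstream miR-21 binding site, 2000 cells/well. Titrations up to approximately 40 uM, 48 hours; luciferase luminescence read.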
Numbers without * were called inactive; ? = inconclusive; / = no result given; & = joins results of further samples; [ ] = another dose, or the depositor's remark. Some of the compounds tested; the hit share may differ from the screen's.

GLA inh pH 4.5	Rango-impB inh	Rango release inh	miR-21 FLuc	structure
/	-3.1%	1%	/	CC(=O)C[C@@H](O)CC(=O)[C@@H]1OC(=O)CCCCCCc2ccccc21
/	0.5%	26%	/	COc1ccc(CC(=O)OCC(=O)c2ccc(S(=O)(=O)N3CCCCC3)cc2)cc1
12	1.8%	-11%	29%	Cc1cc(C(=O)CCl)c(C)n1-c1cccc([N+](=O)[O-])c1
1	-1.1%	3%	5%&1%	CCOC(=O)c1cccc(NC(=O)C2(S(=O)(=O)c3ccc(C)cc3)CC2)c1
/	-0.5%	1%	3%	O=C(c1ccc(Br)c([N+](=O)[O-])c1)N1CCN(Cc2ccccc2)CC1
5	1.2%	-3%	4%	Cc1ccccc1NNC(N)=S
0	-3.8%	1%	0%	Cc1ccccc1-n1c(=S)[nH]c2nc3c(cc2c1=O)COC(C)(C)C3
/	2.1%	21%	-1%	COc1ccc(C(=O)N2CCCC(Nc3ccc(F)cc3)C2)c(OC)c1 (stereo not given)
/	0.9%	-13%	/	CC[C@@]1(C(=O)OC)N[C@H](CN(C)S(=O)(=O)c2ccc(C(C)(C)C)cc2)[C@@H]2C(=O)N(C)C(=O)[C@@H]21
0	-0.8%	-6%	0%	CN(c1ccc(OCC(=O)N2CCC(C(N)=O)CC2)cc1)S(=O)(=O)c1cccs1
/	0.1%	-2%	/	Cc1c(C(=O)NCCN2CCOCC2)oc2ccc(Br)cc12
2	-0.2%	2%	-1%	N/C(COc1ccccc1)=N\NS(=O)(=O)c1ccccc1
0	-3.3%	-15%	17%	CCOc1cc(N2CCOCC2)c(OCC)cc1NS(=O)(=O)c1ccc(Cl)s1
/	-0.3%	7%	/	CC1CCCN(C(=O)CN2C(=O)NC3(CCCCC3C)C2=O)C1 (stereo not given)
/	-0.7%	-5%	0%	c1c(CC2CCCC2)nnn1C[C@H]1CC[C@@H]([C@@H]2CC[C@H](Cn3cc(CC4CCCC4)nn3)O2)O1

A section taken from the entries so far, for reference:
GLA inh pH 4.5	Rango-impB inh	Rango release inh	miR-21 FLuc	structure
/	-0.3%	7%	/	CC1CCCN(C(=O)CN2C(=O)NC3(CCCCC3C)C2=O)C1 (stereo not given)
/	-0.7%	-5%	0%	c1c(CC2CCCC2)nnn1C[C@H]1CC[C@@H]([C@@H]2CC[C@H](Cn3cc(CC4CCCC4)nn3)O2)O1

Looked up above.
`CCOC(=O)c1cccc(NC(=O)C2(S(=O)(=O)c3ccc(C)cc3)CC2)c1` @ Rango release inh: 3%
`CC1CCCN(C(=O)CN2C(=O)NC3(CCCCC3C)C2=O)C1` (stereo not given) @ Rango-impB inh: -0.3%

More structures.
GLA inh pH 4.5	Rango-impB inh	Rango release inh	miR-21 FLuc	structure
-13	-2.9%	-20%	-6%	CCOC(=O)c1c(C)n(C)c2ccc(OCC(N)=O)cc12
6	-5.7%	2%	0%	CC(C)=CC(=O)Nc1ccccc1C(N)=O
1	-2.5%	-5%	-12%	CC(=O)Nc1ccc(/C=N/N2C(C)CCCC2C)cc1 (stereo not given)
/	-2.5%	-10%	5%	FC(F)(F)c1cccc(N2CCN(C3CC4CCC3C4)CC2)c1 (stereo not given)
-6	-4.6%	?	-56%	Cc1c(/C(O)=C2\C(=O)C(=O)N(CCN(C)C)C2c2ccccc2)cnn1-c1ccccc1 (stereo not given)
2	-1.7%	3%	-1%	CCOc1cc(C2C(C#N)=C(N)Oc3n[nH]c(CC)c32)ccc1OCCN1CCOCC1 (stereo not given)
1	-2.1%	19%	-2%	Cc1nn(-c2ccccc2)c2c1C(c1ccc(F)cc1F)C(C#N)=C(N)O2 (stereo not given)
1	-2.5%	1%	-2%	C=CCNC(=S)NNC(=O)c1ccco1
/	-6.8%	6%	-6%	CC1CCCN(S(=O)(=O)c2ccc(NC(=O)CN3CCCCC3)cc2)C1 (stereo not given)
-12	-1.6%	0%	-15%	Cc1ccc(S(=O)(=O)c2nc(S(C)(=O)=O)sc2NCc2ccc3c(c2)OCO3)cc1
/	4.1%	6%	/	CC(=O)Nc1ccc(S(=O)(=O)NN=Cc2ccc(Cl)c(Cl)c2)cc1
/	3.8%	14%	11%	CCOc1ccc(CCNC(=O)COC(=O)c2cc(S(=O)(=O)N3CCOCC3)ccc2F)cc1OCC
/	-0.4%	-1%	/	O=C(COc1ccc(Br)cc1CO)Nc1ccc(S(=O)(=O)N2CCCCC2)cc1
/	?	-4%	/	N#CCN(C(=O)COC(=O)C1CC2CCCC(C1)C2=O)c1ccccc1 (stereo not given)
-9	-1.0%	?	3%	CCCCC(CC)Cn1c(O)c(/C=C2\C=NN=C2c2ccccc2)sc1=S (stereo not given)

Two of the compounds above, with two lines to a compound.
Second line of a record: GLA inh pH 4.5 | Rango-impB inh | Rango release inh | miR-21 FLuc
Cc1nn(-c2ccccc2)c2c1C(c1ccc(F)cc1F)C(C#N)=C(N)O2 (stereo not given)
    1 | -2.1% | 19% | -2%
C=CCNC(=S)NNC(=O)c1ccco1
    1 | -2.5% | 1% | -2%

More structures
GLA inh pH 4.5	Rango-impB inh	Rango release inh	miR-21 FLuc	structure
-4	6.3%	-6%	-30%	CCOC(=O)CC(=O)CSc1nc2ccc(OC)cc2cc1C
-3	-2.5%	1%	-49%	CC(C)OC(=O)c1ccc(NC(=O)C2C3CC4OC(=O)C2C4C3)cc1 (stereo not given)
-3	-0.2%	7%	0%	CCn1c(SCC(=O)Nc2nccs2)nnc1-c1ccccc1
/	4.1%	-14%	-68%	O=C(O)c1cc(N/N=C/c2ccc(-c3ccccc3)cc2)ccc1Cl
5	2.7%	3%	-47%	CCc1ccc(CNc2ccc3c(c2)ncn3C)cc1
-1	-2.9%	-12%	0%	CCOC(=O)C1CCCN(c2c(N3CCN(c4cccc(Cl)c4)CC3)c(=O)c2=O)C1 (stereo not given)
/	-1.0%	-19%	/	CC1(C)OC(=O)C=C[C@]2(C)[C@H]3CC[C@@]4(C)[C@H](c5ccoc5)OC(=O)[C@H]5O[C@]54[C@]3(C)C(=O)C[C@@H]12
/	-3.8%	-2%	/	C[C@H](CO)N1C[C@H](C)[C@@H](CN(C)C(=O)NC2CCCCC2)Oc2c(NS(=O)(=O)c3ccc(F)cc3)cccc2C1=O
2[21.1 µM]	5.3%	17%	2%	C/C(=N\NC(=O)CN(c1ccc(Oc2ccccc2)cc1)S(C)(=O)=O)C(C)(C)C
/	2.0%	27%	5%	CC(=O)N(Cc1cc2ccccc2[nH]c1=O)c1ccc(C)cc1
-1	-1.2%	2%	-6%	Cc1ccc(NC(=O)N2CCC(O)(c3ccc(Cl)cc3)CC2)cc1
-5	4.3%	-22%	-44%	O=c1n(-c2ccc(Br)cc2)cnn1-c1ncccc1[N+](=O)[O-]
-2	0.8%	1%	-20%	CCOC(=O)c1cnc2c(Cl)c(Cl)ccc2c1N1CCN(C)CC1
-4	?	0%	-8%	Cc1cccc(N(CC(=O)O)CC(=O)O)c1
10	0.5%	1%	13%	CCOC(=O)c1[nH]c(C)c(/C(O)=C2\C(=O)C(=O)N(CCN3CCOCC3)C2c2ccco2)c1C (stereo not given)

Later entries:
GLA inh pH 4.5	Rango-impB inh	Rango release inh	miR-21 FLuc	structure
12	0.5%	-6%	-4%	CC1CCC(NC(=O)C(NC(=O)c2ccccc2)C(C)C)CC1 (stereo not given)
-10	3.5%	-6%	0%	O=C1CCCN1S(=O)(=O)c1ccccc1
/	-2.1%	0%	3%	CCCCCCn1cc(C(=O)O)c(=O)c2cc(F)c(N3CCCCC3)cc21
-2	-6.9%	24%	-1%	Cc1ccc(O)c(CC(C)C)n1
-10	-0.3%	1%	0%	O=C(NC1CCCC1)C(c1ccccn1)N(C(=O)c1csnn1)C1CCCCC1 (stereo not given)
3	-2.0%	0%	0%	CCOC(=O)CSc1nc(CC)nc2ccccc12
/	3.6%	3%	/	C=CCNC(=O)c1ccc(-c2nc3ccccc3nc2-c2ccccc2)cc1
1	0.7%	-3%	-1%	Cc1ccc(-c2cc(O)cc3sc(=O)oc23)cc1C
0	2.0%	5%	1%	Cc1ccc(-n2cc(CNCCCN3CCCC3=O)c(-c3ccc(F)cc3)n2)cc1
-4	4.5%	1%	0%	Cc1oc(CN2CCOCC2)cc1C(=O)O
/	0.1%	1%	4%	O=c1[nH]cnc2c1cnn2Cc1ccccc1Cl
?	-0.6%	-10%	-3%	CC(=O)[C@@H]1[C@@H](C(=O)c2ccc(C)cc2)[C@]2(C(=O)Nc3ccccc32)[C@H]2C=Cc3cc(F)ccc3N12
5	-1.6%	3%	0%	O=C(O)C12CC3CC(C1)CC(n1cnc(Cl)n1)(C3)C2
/	-4.5%	-6%	-10%	COc1ccc(NC(=O)c2cc(-c3ccccc3)on2)cc1
0	-0.1%	4%	-6%	OC(COc1ccc2c(c1)OCO2)CN1CCc2ccccc2C1 (stereo not given)

Next part:
GLA inh pH 4.5	Rango-impB inh	Rango release inh	miR-21 FLuc	structure
5	-2.0%	-18%	-43%	O=C(Nc1ccc(-c2ccc3nncn3n2)cc1)C1CCCCC1
/	-2.9%	?	/	O=S(=O)(NCCCc1ccccc1)c1ccc(Br)cc1
3	-2.4%	1%	-7%	O=C(/C=C/c1ccccc1)NC1CCS(=O)(=O)C1 (stereo not given)
-7	2.1%	-13%	-35%	COC(=O)N/N=C/c1c(C)cc(C)cc1C
/	-3.4%	5%	/	CCN(CC(=O)NCc1cccs1)C(=O)c1ccc(Cl)c(Cl)c1
/	?	2%	-13%	O=C(O)c1nnn(-c2ccc(F)cc2F)c1-c1ccccc1
4	3.0%	5%	2%	O=C(O)C1c2ccccc2C(=O)N(Cc2ccc(F)cc2)C1c1ccncc1 (stereo not given)
6	-1.4%	-13%	-20%	CCOC(=O)c1sc(=S)n(CC)c1N
4	-1.4%	18%	-1%&-1%	O=C(CSc1ccc2ccccc2n1)Nc1nsc(-c2ccc(Cl)cc2)n1
/	-2.8%	-16%	/	N#Cc1cccnc1N1CCN(C(=O)c2cccc3c2C(=O)c2ccc(-c4ccc(Cl)c(C(F)(F)F)c4)cc2S3(=O)=O)CC1
1	0.4%	-2%	25%	Cc1cccc(CSc2nc3c(c(=O)n2C)SCC3)c1
9	-0.7%	31%	3%	NC(=O)c1cc(N)ccc1N1CCCCC1
1	2.6%	27%	2%	Cc1ccc(CN2CCS(=O)(=O)CC2)cc1
/	-0.1%	0%	4%	CSc1ccc(CCNC(=O)C2CCCN(S(=O)(=O)N3CCOCC3)C2)cc1 (stereo not given)
-5	0.4%	6%	-50%	Nc1nccnc1C(=O)N/N=C/c1ccco1

New compounds follow.
GLA inh pH 4.5	Rango-impB inh	Rango release inh	miR-21 FLuc	structure
-12	?	?	-5%	COc1cc(/C=C(/C#N)c2nc3ccccc3c(=O)[nH]2)ccc1O
-1	0.7%	3%	-3%	CCOC(=O)/C(=C/Nc1ccc(F)cc1)[N+](=O)[O-]
-2	-0.5%	-2%	-2%	CN(Cc1ccccc1)C(=O)c1ccccc1NC(=O)c1ccco1
/	0.1%	0%	1%	COc1ccccc1CCN1CCCC(CN(C)C(=O)c2ccoc2)C1 (stereo not given)
-2	0.4%	8%	-3%	CC(C)(Oc1ccc(Cl)cc1)C(=O)OCC(=O)N1CCCC1

Among those listed so far, 3 contain a thiophene ring, fused or not.
GLA inh pH 4.5	Rango-impB inh	Rango release inh	miR-21 FLuc	structure
0	-0.8%	-6%	0%	CN(c1ccc(OCC(=O)N2CCC(C(N)=O)CC2)cc1)S(=O)(=O)c1cccs1
0	-3.3%	-15%	17%	CCOc1cc(N2CCOCC2)c(OCC)cc1NS(=O)(=O)c1ccc(Cl)s1
/	-3.4%	5%	/	CCN(CC(=O)NCc1cccs1)C(=O)c1ccc(Cl)c(Cl)c1

Screening data (PubChem)
